Screening data from PubChem BioAssay.
ClpP mod = qHTS Assay for Activators of ClpP | AID 651965, 2013 | ATP-dependent Clp protease proteolytic subunit (Bacillus subtilis (strain 168)), P80244 | Potency, µM (doses to about 57.5 µM), inactives show at the top dose activity change, negative = active | 1.9% of 340,000 active | purified B. subtilis ClpP, FRET peptide cleavage, 20 min; active = well fitted falling curve with a large enough effect; inconclusive = small, poorly fitted or top-dose-only effect; inactive = no such curve, though single readings can be large or run the other way; also: potency is read from the fitted curve at half-maximal effect; the source files actives as falling curves though it sought activators and does not explain the sign; nearly all actives have a fitted effect of over 65% in size; many hits overshoot -100%
Target sequence (P80244 whole entry, looked up): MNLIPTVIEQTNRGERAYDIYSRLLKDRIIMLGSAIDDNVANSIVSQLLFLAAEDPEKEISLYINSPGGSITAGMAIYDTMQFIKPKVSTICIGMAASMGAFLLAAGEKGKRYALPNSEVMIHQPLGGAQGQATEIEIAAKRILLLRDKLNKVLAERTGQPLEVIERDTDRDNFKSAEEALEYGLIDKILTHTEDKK
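Buffer: 100 mM Tris/HCl pH8, 100 mM KCl, 0.05% low protease BSA, 2.5% glycerol, 0.01% Tween-20. ClpP 10 microg/mL final; 20 min RT; delta FRET normalized to ADEP and DMSO controls.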
PINK1 modulator = A Quantitative High throughput Screen to Identify Chemical Modulators of PINK1 Expression. 0.2% of 410,000 active. PINK1 immunofluorescence, high-content cytometry, 24 h. Potency, µM (titrated, usually from 76.6 µM), for inactives: at the highest dose activation (PINK1 increase), usual class: activators. AID 624263, 2012; active = well fitted activation curve with a large enough effect; inconclusive = small, poorly fitted or top-dose-only effect; inactive = flat fitted curve, though single readings scatter; cell line not stated here;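 also: potency is read from the fitted curve at half-maximal effect; % of control where 0% means no effect; nearly all actives have a fitted effect of over 65% in size; a mitochondrial uncoupler was the plate control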
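Compound titrations (5 concentrations, 24 h) on a stable cell line; DMSO and CCCP controls. Endpoint: fixed-cell PINK1 immunofluorescence with mitochondrial, cell and nuclear markers, scanned by microplate cytometer.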
Sfp PPTase inh = qHTS Assay for Inhibitors of Bacillus subtilis Sfp phosphopantetheinyl transferase (PPTase); Biochemical Sfp PPTase activity, qHTS; 3.5% of 310,000 active; Potency, µM, without a hit: max response, negative = inhibition, actives largely listed as inhibitors; active = well fitted inhibition curve with a large enough effect; inconclusive = small, poorly fitted or top-dose-only effect, or another doubt; inactive = no such curve, though single readings can be large or run the other way;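 also: the enzyme is Sfp with the accession as filed and its product quenches rhodamine fluorescence; potency is read from the fitted curve at half-maximal effect; 0% = enzyme reaction without inhibitor and -100% = no enzyme wells; top concentration of the series not given in the record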
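Fluorescence-quenching assay: 15 nM Sfp-PPTase preincubated 15 min at room temperature with compound, then 5 uM rhodamine-CoA and 12.5 uM BHQ-2-labelled YbbR peptide added. Fluorescence (ex 525/em 598 nm) read at start and after 30 min; difference gives rate.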
TRPV1 potentiator = HTS Assay for Compounds that Act as Potentiators of the Vanilloid Receptor 1; Transient receptor potential cation channel subfamily V member 1 (Homo sapiens), Q8NER1; TRPV1-expressing cells, Fluo-8 calcium influx, capsaicin EC20 potentiation; host cell line not named in the record; control for the full effect not named in the record; potentiation, % at 8.33 µM; 0.02% of 320,000 active; AID 540277, 2011; active means potentiation above 80%; inconclusive means 30% to 80%; inactive means below 30%; also: 0% is about no effect
Target sequence (Q8NER1 whole entry, looked up): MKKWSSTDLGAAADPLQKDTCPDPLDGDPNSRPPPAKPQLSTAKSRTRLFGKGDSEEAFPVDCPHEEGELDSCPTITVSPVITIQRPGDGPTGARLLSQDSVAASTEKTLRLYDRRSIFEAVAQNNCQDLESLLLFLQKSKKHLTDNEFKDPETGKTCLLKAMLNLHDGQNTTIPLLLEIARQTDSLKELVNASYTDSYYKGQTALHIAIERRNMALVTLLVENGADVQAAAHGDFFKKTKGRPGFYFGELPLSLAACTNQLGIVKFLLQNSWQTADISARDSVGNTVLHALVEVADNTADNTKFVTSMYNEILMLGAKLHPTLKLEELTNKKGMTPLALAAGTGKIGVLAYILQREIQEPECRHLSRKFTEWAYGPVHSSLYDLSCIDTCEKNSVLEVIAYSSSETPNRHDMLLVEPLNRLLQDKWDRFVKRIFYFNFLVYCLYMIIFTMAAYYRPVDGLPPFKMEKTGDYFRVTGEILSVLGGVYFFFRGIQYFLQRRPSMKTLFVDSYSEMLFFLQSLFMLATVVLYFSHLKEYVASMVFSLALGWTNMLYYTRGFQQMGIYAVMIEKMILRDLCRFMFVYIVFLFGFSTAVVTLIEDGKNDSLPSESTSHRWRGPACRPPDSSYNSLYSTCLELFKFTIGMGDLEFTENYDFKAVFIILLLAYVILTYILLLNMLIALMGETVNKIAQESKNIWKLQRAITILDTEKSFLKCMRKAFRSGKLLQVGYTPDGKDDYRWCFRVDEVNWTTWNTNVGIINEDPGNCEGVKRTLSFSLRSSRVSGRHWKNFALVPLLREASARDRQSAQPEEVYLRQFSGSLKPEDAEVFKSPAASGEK
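TRPV1-expressing cells were cultured overnight at 35.5C and loaded with Fluo-8 calcium dye for 40 to 90 min at room temperature. After a 10 s baseline, compound was added and calcium influx was read kinetically for 3 min (ex 480/em 520 nm).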
Menin MLL FP FL = qHTS Assay for Inhibitors Targeting the Menin-MLL Interaction in MLL Related Leukemias: Competition With Fluorescein Labeled MLL-derived Peptide; FP activity change, % at 61.4 µM; Fluorescence polarization, fluorescein-MLL peptide displacement from menin; 290,000 tested, under 10 active; inconclusive = falling polarisation curve, or a change in total fluorescence; inactive = total fluorescence flat and polarisation flat or rising; no compound was filed as active; the % refers to the polarisation; negative = inhibition;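 also: % of control where 0% means no effect; inhibitors lower the polarisation; unlabelled MLL peptide was the positive control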
TRPML1 agonist = qHTS for Agonists of the Human Mucolipin Transient Receptor Potential 1 (TRPML1); 0.12% of 410,000 active; TRPML1-expressing cells, Ca2+ dye fluorescence, FDSS; host cell line not named in the record; reference of the full effect not given here; Mucolipin-1 (Homo sapiens), Q9GZU1; activation, % (no concentration beside the values); in the data active = activation above about 50%; inconclusive = about 30% to 50%; inactive = below about 30%; also: 0% is about no effect; the text of the record puts the active cut at 80%
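Agonist activity was taken from a 110 s kinetic Ca2+ dye read on the FDSS after pinning compounds onto TRPML1-DL cells. The cells were seeded at 1,500/well with Tet inducer, incubated about 16 h, then dye-loaded at room temperature.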
TRPML1 inh = qHTS for Inhibitors of the Human Mucolipin Transient Receptor Potential 1 (TRPML1) | Mucolipin-1 (Homo sapiens), Q9GZU1 | TRPML1-inducible cells, Ca2+ dye fluorescence, FDSS; active compounds read low; inhibition of EC80 agonist-evoked calcium signal | activity change, negative = inhibition, % (concentration not given with the values) | 0.02% of 390,000 active; in the data active means activity change below about -50%; inconclusive means about -30% to -50%; inactive means above about -30%;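 also: stimulus is agonist 54-4 at its EC80 concentration; % is scaled to controls: 0 for no effect and ±100 for the full control effect; the text of the record puts the active cut at -80%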
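Tet-induced TRPML1-DL cells loaded with Ca8 no-wash calcium dye were read kinetically on FDSS. Compound addition was followed by EC80 agonist 54-4 (4 uM final); inhibition was read over 110 s.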
* marks the source's active call; other numbers are inactive results; ? = inconclusive; · = no result given; [ ] = dose if it differs, or a comment. No enrichment for hits; any-hit rate near 4.4%.

SMILES | ClpP mod | PINK1 modulator | Sfp PPTase inh | TRPV1 potentiator | Menin MLL FP FL | TRPML1 agonist | TRPML1 inh
O=C(Nc1ccc2c(c1)OCO2)c1cc(-c2ccc(O)cc2)on1 | · | 0.2% | 10% | -3 | -13 | 1.2 | -20
COc1ccc(NC(=O)CN2CCCC2)cc1 | -1.3% | 1.4% | 15% | -13 | 0.4 | -0.1 | -4
CN(CCOC(=O)C1c2ccccc2Oc2ccccc21)C(C)(C)C | -1.6% | 0.3% | -8% | 6 | 3.2 | 1.6 | -5
COc1ccc2[nH]cc(C(=O)CN3CCCC(C)(C)C3)c2c1 | -2.7% | -2.2% | -1% | 13 | 4.3 | 3.6 | 26
CC=CCn1c(SCc2ccccc2)nc2c1c(=O)[nH]c(=O)n2C | 0.5% | 0.7% | · | · | · | 0.7 | 22
CC(C)=CCCC1=CCC2C(=O)NNC(=O)C2C1 (configuration not stated) | -0.6% | -0.2% | 15% | 1 | 5.2 | -0.7 | -7
CC1(C)C(=O)C2(CCCCC2)C(=O)OC1c1cccs1 (configuration not stated) | 1.5% | 5.2% | -3% | 28 | -0.3 | -0.3 | 0
CC(NC(=O)CN1C(=O)NC(C)(c2cccc3ccccc23)C1=O)c1ccccc1 (configuration not stated) | · | -0.2% | 4% | -5 | 0.0 | 0.3 | -3
CCCCNc1c(C(=O)OCC)c(C)nc2c1cnn2CC | -0.7% | 3.8% | ? | · | 8.9 | 1.8 | -3
CCOc1ncccc1C(=O)OC(C)C(=O)NC1CCCCC1 (configuration not stated) | · | 6.8% | · | 7 | · | -0.7 | -7
OC1(c2cccc(C(F)(F)F)c2)CCNCC1 | 0.5% | -0.2% | 6% | 1 | 2.6 | -0.5 | 27
CC(=O)N1CCC[C@@]2(CCN(c3ccccc3)C2)C1 | · | 1.0% | 2% | · | -5.2 | · | ·

(continued)
SMILES | ClpP mod | PINK1 modulator | Sfp PPTase inh | TRPV1 potentiator | Menin MLL FP FL | TRPML1 agonist | TRPML1 inh
Cc1ccc(OCc2nc(-c3ccc(C(=O)NCc4ccc(OC(C)C)cc4)cc3)oc2C)cc1 | -26% | 4.4% | · | · | · | -0.3 | -4
COc1ccccc1NC(=S)NNC(=O)c1c(Cl)c(C)nn1C | 2.2% | -1.1% | 3% | 6 | -1.7 | -0.2 | 5
COc1ccc(C(=O)O)cc1S(=O)(=O)NCCN(C)C | · | 6.3% | 8% | -10 | 2.2 | 0.6 | -1
O=C1CCN(C(=S)NCc2ccccc2)CC1 | · | -0.2% | -4% | -3 | -2.0 | -0.1 | 8
CCN(CC)CCNC(=O)CNC(=O)c1nn(-c2ccc(OC)cc2)c(=O)c2ccccc12 | -1.4% | 0.9% | 8% | -15 | -5.3 | · | ·
CN(C)S(=O)(=O)c1cccc(-c2cn3cc(Cl)ccc3n2)c1 | 28µM* | -2.3%[38.3 µM] | 1% | -6 | -2.7 | 2.7 | -6
COc1ccc(C(C(=O)NCCC(C)C)N(CCO)C(=O)c2snc(C(N)=O)c2N)cc1 (configuration not stated) | -15% | 1.2% | 7% | -27 | -0.7 | -0.2 | -7
COC(=O)c1ccc(C(=O)OC)c(NC(=O)CN(C)Cc2ccc(Cl)c(Cl)c2)c1 | -1.7% | 1.8% | -5% | -3 | 0.0 | -0.3 | 8
Cc1onc(-c2ccccc2)c1-c1nc2cc(Cl)ccc2c(=O)o1 | · | 3.3% | 9% | · | 5.8 | 0.7 | 24
Cc1ccc(NC(=O)Cn2c(O)c(N=NC(N)=S)c3ccccc32)cc1 | · | 18% | 12% | -14 | 5.1 | 0.7 | 7
CC[C@@H](C)[C@@H]1CN([C@@H](CN2CCC[C@H]2CN2C(N)=NC[C@H]2CC(C)C)C(C)C)C(=N)N1CCCC1CCCC1 | -0.5% | -0.2% | · | · | · | -0.3 | -1
Cc1ccc(C(=O)NC(=S)NCCN2CCOCC2)cc1 | 28µM* | 0.7% | 0% | -19 | 10.0 | 0.1 | -7

New compounds follow
SMILES | ClpP mod | PINK1 modulator | Sfp PPTase inh | TRPV1 potentiator | Menin MLL FP FL | TRPML1 agonist | TRPML1 inh
O=C(O)/C=C/C(=O)N1CCN(S(=O)(=O)c2cc(C(F)(F)F)ccc2Cl)CC1 | · | 0.1% | -3% | 3 | -1.1 | 0.6 | -17
CC(C)C(=O)Nc1cccc(NC(=S)NC(=O)c2ccc3c(c2)OCO3)c1 | 5.1% | 4.8% | 22% | 15 | · | -0.7 | 8
O=C(CCCc1nc(-c2ccccc2Cl)no1)N1CCOCC1 | -0.6% | 2.8% | 15% | -10 | 8.1 | -0.8 | 18
COc1cc2cc(c1Cl)N(C)C(=O)CC(OC(=O)C(C)N(C)C(C)=O)C1(C)OC1C(C)C1CC(O)(NC(=O)O1)C(OC)C=CC=C(C)C2 (configuration not stated) | 0.8% | 17% | · | · | · | 0.0 | 26
COc1ccc(C(=O)OCN2C(=O)c3ccccc3C2=O)cc1 | · | 0.9% | -14% | -9 | -1.4 | 2.1 | -16
C=CCNC(=O)CN1C(=O)CSc2ccc(S(=O)(=O)N3CCOCC3)cc21 | -0.3% | 0.6% | · | · | · | -0.3 | 16
NC(=O)CC(NC(=O)Cc1cccc2ccccc12)c1ccc(NCCCN2CCCC2=O)c([N+](=O)[O-])c1 (configuration not stated) | -3.2% | 0.0% | 12% | 22 | 5.3 | 0.2 | -6
Cc1ccc(NC(=S)Nc2cccc(-c3n[nH]c(=S)o3)c2)cc1 | · | -1.3% | 50µM* | -6 | 51[activator] | 1.0 | 17
Cc1ccc2c(c1)N(CC(=O)NCc1ccccc1Br)C(=O)c1cccnc1O2 | -1.6% | 0.0% | · | · | · | 1.2 | 5
O=C(COC(=O)c1nc(Cl)ccc1Cl)NCc1ccccc1 | · | 1.6% | 7% | ? | 0.9 | 2.5 | -1
Cc1ccc(S(=O)(=O)NCC(=O)NCC(=O)N2CCN(c3ncccn3)CC2)cc1C | · | -2.6% | 12% | -7 | 2.7 | 1.6 | 16
O=C(Oc1ccc(OC(=O)c2ccco2)c(S(=O)(=O)c2ccc(Cl)cc2)c1)c1ccco1 | -2.0% | 1.8% | 31% | 4 | 0.9 | 1.0 | 36

Remaining list, next part
SMILES | ClpP mod | PINK1 modulator | Sfp PPTase inh | TRPV1 potentiator | Menin MLL FP FL | TRPML1 agonist | TRPML1 inh
COc1ccc(-c2cc(-c3ccccc3)nc3ncnn23)cc1 | 3.8% | 3.4% | -11% | -9 | -1.5 | 0.4 | 30
CCc1ccc(NC(=O)c2nn(-c3ccc(OC)cc3)c(=O)c3c2c2ccccc2n3C)cc1 | ? | -0.5% | · | · | · | 2.0 | -29
COc1cccc(C(=O)Nc2nnc(Cc3ccc(OC)c(OC)c3)s2)c1 | · | 1.4% | 11% | 8 | 2.4 | -0.5 | -10
Cc1ccc(S(=O)(=O)N2CCC(C(=O)N/N=C/c3ccncc3)CC2)cc1 | -0.9% | 2.3% | 11% | -1 | -1.7 | 2.8 | 6
CCOC(=O)N1CCN(CC(c2ccccc2)c2ccccc2)CC1 | 0.2% | -0.8% | -19% | -9 | 0.1 | 1.7 | -16
Clc1ccccc1-c1nnc2sc(CCc3ccccc3)nn12 | -2.2% | -6.0%[38.3 µM] | 13µM* | -10 | 0.8 | 1.4 | -1
CCc1nc2ccc(C(=O)NCCCn3ccnc3)cn2c1N(CC)C(=O)NCCc1ccccc1 | -8.7% | 1.6% | · | · | · | 0.0 | ·
O=C(Cn1ncc(N2CCCC2)c(Cl)c1=O)c1ccc(Cl)cc1 | 1.0% | 1.1% | 9% | -11 | 0.0 | -0.6 | -14
COc1ccc(C(=O)c2cn(CC(=O)Nc3ccc4c(c3)OCO4)c3ccc(OC)cc3c2=O)cc1 | 4.6% | 1.2% | · | · | · | 0.2 | 24
Fc1ccccc1C1c2[nH]c3ccccc3c2CCN1CCCn1cccn1 (configuration not stated) | · | 2.6% | 3% | -1 | -1.8 | 0.3 | -12
CN(Cc1nc(-c2cnccn2)no1)C1CC(C)(C)NC(C)(C)C1 | · | -1.0% | 10% | -6 | 1.3 | -1.2 | 5
O=C(Nc1ccccc1)OCc1cc(-c2ccccc2Cl)on1 | -1.7% | -2.3% | 0% | -6 | -0.7 | 1.6 | 33

Further entries.
SMILES | ClpP mod | PINK1 modulator | Sfp PPTase inh | TRPV1 potentiator | Menin MLL FP FL | TRPML1 agonist | TRPML1 inh
COc1ccc(CN2CN=C(Nc3nc4ccccc4s3)NC2)cc1 | 0.0% | 10%[38.3 µM] | 7% | 8 | 5.6 | -0.6 | -4
COc1ccc(NC(=O)N2CCCC(C(=O)NCCc3ccccc3)C2)cc1 (configuration not stated) | · | 1.0% | 11% | -5 | 3.4 | 0.8 | 1
COc1ccc(S(=O)(=O)N(CC(=O)NC2CCCC2)c2ccccc2OC)cc1 | 1.3% | -0.6% | 15% | 22 | · | 0.7 | 3
O=C(NNc1c(Cl)cccc1Cl)c1c(F)cccc1Cl | · | 1.9% | 3% | · | -0.4 | -0.4 | -10
CC(=O)NC1CC2CCCC(C1)N2CC(=O)NCc1ccc(F)cc1 (configuration not stated) | -2.2% | -2.3% | 4% | -10 | 3.0 | 0.1 | 20
CCOC(=O)CCc1ccc(NC(=O)/C=C/c2ccc([N+](=O)[O-])o2)cc1 | 1.3% | -2.6% | · | · | · | 0.2 | -7
Cc1cccn2c(=O)cc(COC(=O)C(C)Oc3ccccc3)nc12 (configuration not stated) | -21% | 0.8% | · | · | · | 0.9 | 1
COc1ccc(N2CCCn3c2nc2c3c(=O)n(Cc3ccccc3F)c(=O)n2C)c(OC)c1 | -5.0% | -0.7% | -13% | · | -0.2 | 0.6 | 6
CC(O)CNCCCCOc1ccc(OCc2ccccc2)cc1 (configuration not stated) | -0.5% | 0.8% | 1% | -3 | 2.4 | -0.2 | -7
